# From PubChem BioAssay
# CapD inh: Bacillus anthracis CapD inhibitors, primary screen, biochemical, fluorescence intensity | actives 0.23% (n = 140,000) | purified CapD enzyme, fluorescence intensity read-out; hits give low values; some hits fall short of the stated cut | CapD gamma-glutamyltranspeptidase (Bacillus anthracis Ames Ancestor) | z-score (concentration not given with the values);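 active = z-score under -4 in either of two replicates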;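 also: stock transfer was 100 nL into about 40 µL; score is relative to mean and spread of the plate; one replicate is shown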
# AID504770: growth inhibition of E. coli YBA685, primary screen, V. cholerae RctB inhibitors | z-score (no concentration beside the values) | actives 0.27% (n = 130,000) | E. coli YBA685 rctB-dependent plasmid, OD600 growth, 3 h; hits give low values;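 active = z-score under -2 on both plates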;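 also: wells of about 30 µL received 100 nL stock; score is relative to mean and SD of the test wells; the first replicate is given; strong numbers were not always called active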
# * marks the source's active call; other numbers are inactive results; . = not tested or not shown.
SMILES,CapD inh,AID504770
C=CCN(CC=C)C(=O)CSc1nnnn1-c1ccc(C)cc1C,.,-0.6
O=C1CN(c2ccc(OC(F)(F)F)cc2)C(=O)CN1CC1CC1,0.4,0.45
Cn1c(SCc2nc3ccccc3n2CC(N)=O)nc2ccccc21,0.7,.
Cc1c(N)c(C)c(N)c(C)c1N,.,0.4
COc1ccccc1OCCOc1ccc([N+](=O)[O-])cc1/C=C1/C(=O)N(c2ccccc2)N=C1C,-0.015,.
O=C(NCCc1ccncc1)OCCOc1ccc2ccccc2c1,0.42,.
O=C(CSc1ccc2nnc(-c3ccccn3)n2n1)c1ccccc1,0.33,-0.1
CC(Oc1ccccc1F)C(=O)N/N=C/c1cnn(-c2ccccc2)n1 (centres undefined),.,0.1
O=C(NCc1ccc(S(=O)(=O)NCCN2CCCC2)s1)c1ccc(Cl)cc1,-0.04,-0.85
Cc1onc(-c2c(Cl)cccc2Cl)c1C(O)c1ccc(F)cc1 (centres undefined),0.16,-0.05
CCCC(=O)Nc1c(O)c2ccccc2[nH]c1=O,.,-0.45
COCCn1c(=NC(=O)CSC(C)=O)sc2cc(OC)ccc21,.,-0.2
CCOc1ccc(NC(NC(=O)c2cccs2)C(=O)c2ccccc2)cc1 (centres undefined),12,0.1
CC1CN(C2=NC(=O)/C(=C\c3ccccc3)S2)CC(C)O1 (centres undefined),-0.8,-0.25
N#CC1=C(N)S[C@@H](C(=O)c2ccccc2)[C@@H]1c1ccccc1,-0.23,.
CCOC(=O)C1=C(N)OC(c2ccccc2)=C(C(=O)OCC)C12C(=O)Nc1ccccc12 (centres undefined),-0.25,.
CN(C)c1cc(O)c(C(=S)Nc2ccccc2)c(N(C)C)c1,-0.71,-0.35
CCOC(=O)CN=Cc1c(O)[nH]c2ccccc12,-1,0.8
COc1ccc(-c2nn(CN3CCC(C)CC3)c(=S)n2-c2ccccc2)cc1OC,-0.45,.
CC(C)NS(=O)(=O)c1ccc(OCC(=O)N2CCC(Cc3ccccc3)CC2)cc1,-0.015,-0.15
CCN1CCCC1CNS(=O)(=O)c1cccc2nonc12 (centres undefined),-0.95,.
O=C(/C=C/S(=O)(=O)c1ccc(Br)cc1)c1ccc(F)cc1,-0.71,-1.9
CC(=Nc1ccccc1C(F)(F)F)c1cccs1,-0.6,-1.2
COc1ccc(Sc2nc3ccccc3n3c(C(F)(F)F)nnc23)cc1,2.6,.
CCc1nnc(NC(=O)c2ccncc2)s1,-0.86,.

# In the list so far, these have a CF3 group:
SMILES,CapD inh,AID504770
O=C1CN(c2ccc(OC(F)(F)F)cc2)C(=O)CN1CC1CC1,0.4,0.45
CC(=Nc1ccccc1C(F)(F)F)c1cccs1,-0.6,-1.2
COc1ccc(Sc2nc3ccccc3n3c(C(F)(F)F)nnc23)cc1,2.6,.

# More compounds.
SMILES,CapD inh,AID504770
O=C(NC1CCN(Cc2c(F)cccc2Cl)C1)OCC1COC2(CCCCC2)O1 (centres undefined),-0.83,.
Cc1cc(C)n2cc(CNc3ccc(N4CCCC4=O)cc3)nc2n1,.,-0.3
COc1ccc(-n2ccn(CC(=O)Nc3ccccc3)c(=O)c2=O)cc1,0.48,1.1
N#CC1(C#N)[C@H](c2ccc(F)cc2F)[C@@H](C(=O)c2ccccc2)N2c3ccccc3C=C[C@@H]21,2.3,.
CCOCCOC(=O)C1=C(C)NC2=C(C(=O)CC(C)(C)C2)C1c1cc(Br)c(O)c(OCC)c1 (centres undefined),1.1,.
O=c1[nH][nH]c(=O)c2c(NS(=O)(=O)c3ccccc3)cccc12,14,-0.2
COC(=O)/C(C#N)=C/c1cc(Br)c(OC(C)=O)c(OC)c1,0.15,.
CC[C@@]1(C)N[C@H](C(=O)O)CS1,0.4,-2.1
CCCn1c(C2CC(=O)N(Cc3ccccc3)C2)nc2ccccc21 (centres undefined),-0.4,-0.5
O=S(=O)(NC1=NCCS1)c1ccc(N=NN2CCCCC2)cc1,.,-1.3
CN1CCN(C(=O)c2ccc3c(c2)[nH]c(=S)n2c4ccccc4nc32)CC1,-0.15,.
Oc1c(I)cc(I)c2cccnc12,-0.12,0.1
CC(C)(C)c1ccc(C(=O)N2CCC(c3nc(-c4cccs4)no3)CC2)cc1,-0.17,.
O=c1[nH]cnc2sc3c(c12)CCC3,.,-0.85
O=C(O)/C=C\C(=O)Nc1ccc(Cl)c(Cl)c1,0.03,0.35
Cc1ccccc1-n1c(SCC(=O)Nc2ccc(Br)cc2)nc2n[nH]c(C)c2c1=N,0.65,.
CCC(N)Cc1c[nH]c2ccccc12 (centres undefined),-0.56,-0.75
O=C(Nc1ccc(-n2cnnn2)cc1)c1ccc(S(=O)(=O)N2CCCc3ccccc32)cc1,.,-0.1
c1csc(Cc2nnc(SCc3cn4ccsc4n3)n2C2CCCCC2)c1,.,0.1
O=c1[nH]c2ccccc2nc1Cc1c(F)cccc1Cl,1.2,.
N=C1S/C(=C\c2ccc(-c3ccc(F)cc3)o2)C(=O)N1c1ccc2c(c1)OCO2,0.16,.
C/C(=N/Nc1ccccc1F)c1ccc2noc(-c3ccc(F)cc3)c2c1,-1.2,.
Nc1cccnc1NCCNc1ncc(C(F)(F)F)cc1Cl,-0.005,.
Cc1ccc(-n2ncc3c(SCC(=O)NC(C)C)ncnc32)c(C)c1,.,0.95
CCc1ccc(-c2cc(C)no2)cc1S(=O)(=O)NCc1cccs1,0.59,-0.1
# The list continues:
SMILES,CapD inh,AID504770
Cc1cccc(N2CCC(N=CN3CCOCC3)=N2)c1,-3.1,-0.65
CCOc1ccc2nc(/N=C/c3nc(-c4ccc(Br)cc4)oc3O)sc2c1,0.12,.
O=S1(=O)Cc2ccc(NS(=O)(=O)c3ccc(Br)s3)cc2C1,-0.49,.
CNC(=S)N/N=C(\C)Cc1ccc(OC)cc1,.,-0.25
CCOC(=O)c1cnc2c(OC)cccc2c1NC1CCCCC1,0.29,-0.25
Cc1cc(C(=O)CSc2n[nH]c(N)n2)c(C)n1Cc1ccc2c(c1)OCO2,.,0.7
O=S(=O)(c1csc2ccccc12)N1CCOCC1,0.33,-0.65
CN1CCN(C23CCCCC2=Cc2cc([N+](=O)[O-])ccc2O3)CC1 (centres undefined),0.21,.
CC(Oc1ccc2c3c(c(=O)oc2c1)CCC3)C(=O)c1ccccc1 (centres undefined),5.5,-0.3
O=C1c2ccccc2C(=O)N1CC(F)(F)F,0.07,-0.4
Cc1ccc(C(=O)OCC(=O)N2CCC(Cc3ccccc3)CC2)s1,-0.59,0
N#C/C(=C\c1ccc(C(F)(F)F)cc1)c1c[nH]c2ccccc12,1.4,0.15
O=C(COc1ccccc1)c1ccc(O)cc1O,-2.9,-0.4
Cc1ccc(/C=C(\C#N)C(=O)NC2CCCCC2C)o1 (centres undefined),.,2.2
Fc1cc(F)c(NC(=S)N2CCOCC2)c(F)c1,-0.08,-0.35
CC(=O)C1=C(C)NC(SCC(=O)c2ccc([N+](=O)[O-])cc2)=C(C#N)C1c1cccs1 (centres undefined),-1.4,.
CC(C)C(C(=O)O)n1c(O)c(C2=c3ccccc3=NC2=O)sc1=S (centres undefined),-1.8,-0.55
COc1ccccc1CCNS(=O)(=O)c1ccc(C(=O)O)n1C,0.11,-1
O=C(Cn1nc(Cc2ccncc2)c2ccccc2c1=O)NCCC1=CCCCC1,-1.1,-2.2*
Nc1cc2c(cc1Cl)OCO2,.,3
CC(C)n1c(=O)c(=O)n(CC(=O)N2CCc3ccccc32)c2cc(C(F)(F)F)ccc21,-0.23,.
COC(=O)c1ccccc1NC(=O)c1oc2ccc(F)cc2c1C,1.9,-0.5
N#Cc1cccc(NC(=O)COC(=O)CCC2CCCC2)c1,0.12,0.25
COC(=O)c1cc(-c2ccc(Cl)c(Cl)c2)n(-c2ccc(C)cc2)n1,0,.
CN(C)C(=O)c1cn(-c2ccccc2)nc1-c1ccc(OC(F)F)cc1,.,-0.2
# Continuation.
SMILES,CapD inh,AID504770
Cc1ccc(C2CC(=O)C=C(Nc3n[nH]c(C)c3-c3ccccc3)C2)cc1 (centres undefined),-0.79,-0.5
CC1(C)CC(=O)C2=C(C1)OC(N)=C(C#N)C21C(=O)c2ccccc2C1=O,-0.36,2.5
CCN(CC)c1ccc(/C=C2\NC(=S)NC2=O)cc1,.,0.3
c1ccc(-n2c(SCc3cc(-c4cccs4)on3)nnc2C2CC2)cc1,.,0.25
CC[C@@]1([C@@H]2O[C@@H]([C@H]3O[C@@](O)(CO)[C@H](C)C[C@@H]3C)C[C@@H]2C)CC[C@H]([C@]2(C)CC[C@]3(C[C@H](O)[C@@H](C)[C@@H]([C@@H](C)[C@@H](OC)C(C)C(=O)O)O3)O2)O1 (some centres undefined),0.06,.
O=C(Nc1cccnc1)c1c(O)c2c(n(C3CC3)c1=O)CCCC2,.,-0.4
COc1ccc(C2CC(=O)C3=C(C2)Nc2ccccc2N(C(=O)c2cc(OC)c(OC)c(OC)c2)C3c2cccs2)cc1 (centres undefined),-0.33,.
COc1ccc(NC(=O)CN(C)CC(=O)c2c(C)[nH]c3ccccc23)cc1,.,0
CN1CCN(C(=O)c2cc(-c3ccc(Cl)cc3)cs2)CC1,-0.49,.
CCCc1nc(SC)[nH]c(=O)c1C,-0.005,-1.6
CC1CCCC(C)N1C(=O)COC(=O)CCC1CCCC1 (centres undefined),0.81,0.65
COC(=O)c1cc2cc(N)ccc2s1,-1.2,-0.7
CN(C)c1ccc2c(c1)S(=O)(=O)c1cc(N(C)C)ccc1C2=O,.,0.2
O=c1[nH]c(O)c(/C=N/Nc2ccccc2)c(=O)[nH]1,-1.3,-1.2
O=C(Sc1cccc2cccnc12)c1ccccc1,0.07,-0.55
OCCCNc1ncnc2sc(-c3ccccc3)cc12,.,-0.2
Fc1ccccc1OCCCOc1ccccc1F,0.47,0.05
C/C(=N\O)c1cc2ccccc2o1,0.41,.
CC(C)CNS(=O)(=O)c1ccc2nc(NC(=O)c3ccccn3)sc2c1,.,1.8
Cc1csc2nc(NC(=O)c3ccccc3)sc(=O)c12,2.5,0.4
Cc1cccc(N2CCN(C(=O)C(NS(=O)(=O)c3cccc4nsnc34)C(C)C)CC2C)c1 (centres undefined),0.32,-2.5
COc1ccc2cc3cc(C(=O)NCCCN4CCN(C)CC4)sc3nc2c1,71,-0.85
CC(Sc1nnc(-c2ccncc2)o1)C(N)=O (centres undefined),.,0.15
O=[N+]([O-])c1ccccc1SC1CC2C(c3ccccc3)Nc3c(Cl)cc(Cl)cc3C2C1Cl (centres undefined),8.6,.
CC1CCCCN1C(=O)c1ccc2ccccc2n1 (centres undefined),.,0.15
# (more compounds)
SMILES,CapD inh,AID504770
O=C1CCOc2ccc3ccccc3c21,-0.41,1.8
N#Cc1cc2c(nc1SCC(=O)NCCc1ccccc1)CCCC2,-0.14,.
CCOC(=O)c1cc(C(C)(C)C)n(CCCN2CCOCC2)c1C,0.6,-0.7
NNC(=O)CNc1c(-c2ccsc2)nc2ccccn12,-0.57,-0.9
CCOC(=O)c1sc(-c2ccccc2)nc1OCc1c(Cl)cccc1Cl,31,0.55
CN(C)S(=O)(=O)c1ccc(C(=O)OCc2csc(Nc3ccccc3)n2)cc1,.,-0.3
O=C(NC(=S)NC1C2CC3CC(C2)CC1C3)c1ccco1 (centres undefined),-0.05,1.1
O=[N+]([O-])c1cc(C(F)(F)F)ccc1N1CCN(S(=O)(=O)c2cccc3nonc23)CC1,-1,.
CC(Oc1cccc(Cl)c1)C(=O)N(C)Cc1nc2ccccc2c(=O)[nH]1 (centres undefined),.,-0.15
O=c1oc(-c2ccc(F)cc2)nc2scc(-c3cccs3)c12,.,0.8
COc1ccc(C(=O)C(/C=N/N)=N/Nc2ccc(C(F)(F)F)cc2)cc1,-0.53,.
CC(=O)Nc1ccc(-c2nnc(-c3ccco3)o2)cc1,.,-0.75
Cc1onc(-c2c(F)cccc2Cl)c1C(=O)N=S(C)(C)=O,-0.54,0.05
CCOc1ccc(CNC23CN4CN(CN(C4)C2)C3)cc1,.,-0.2
COc1ccc(/C=C/C(=O)O)cc1S(=O)(=O)N1CCc2ccccc2C1,-0.29,1.8
CC1CCCCC1NC(=O)Nc1ccccc1F (centres undefined),-0.69,-0.65
CCOC(=O)c1sc2nc3c(c(-c4ccc(OC)cc4)c2c1N)CCC3,-0.07,0.2
CCn1nnc2c(N3CCN(c4ccccc4Cl)CC3)ncnc21,.,-0.5
COCC1CCCN1S(=O)(=O)c1ccc(OC)c(OC)c1 (centres undefined),-0.6,.
O=C(N/N=C/c1cccc(OCc2ccccc2)c1)c1ccc(F)cc1,0.28,.
COc1ccc2nc(SCC(=O)Nc3ccnn3C3CCCC3)[nH]c2c1,.,-0.1
O=C(CN1C(=O)CSC1=O)c1ccccc1,.,-0.5
CCC(C)NC(=S)N1CCN(C)CC1 (centres undefined),.,-0.9
CC(C)(C)OC(=O)N1CCC(N)(C(=O)O)CC1,-0.71,0.9
CC(C)(C)C1=CC(=O)C(C(C)(C)C)=CC1=O,0.22,-0.8
CCCCCCOc1ccc(C(=O)OCC(=O)Nc2c(C)n[nH]c2C)cc1OC,.,-0.75
CSCCC1Oc2ccccc2C2CC(c3ccccc3O)=NN12 (centres undefined),0.17,-0.5
COc1ccc(Br)cc1C(=O)Nc1ccc(NC(=O)c2ccco2)cc1,0.16,1.2
O=S(=O)(Cc1ccc(Cl)cc1)N1CCc2ccccc2C1,-0.18,-1.1
OC(CN1CCCCC1)CN(c1ccccc1)c1ccccc1 (centres undefined),.,-0.6

# Laid out differently: results already given
CCC(C)NC(=S)N1CCN(C)CC1 (centres undefined)
  CapD inh: . | AID504770: -0.9

CC(C)(C)OC(=O)N1CCC(N)(C(=O)O)CC1
  CapD inh: -0.71 | AID504770: 0.9

CC(C)(C)C1=CC(=O)C(C(C)(C)C)=CC1=O
  CapD inh: 0.22 | AID504770: -0.8

CCCCCCOc1ccc(C(=O)OCC(=O)Nc2c(C)n[nH]c2C)cc1OC
  CapD inh: . | AID504770: -0.75

# Compounds were not picked by outcome; about 0.41% have a hit in one of these screens.
